Bioassay records from PubChem.
TRPV1 PAM = HTS Assay for Compounds that Act as Potentiators of the Vanilloid Receptor 1; Transient receptor potential cation channel subfamily V member 1 (Homo sapiens), Q8NER1; TRPV1-expressing cells, Fluo-8 calcium influx, capsaicin EC20 potentiation; host cell line not named in the record; control for the full effect not named in the record; potentiation, % at 8.33 µM; 320,000 compounds, 0.02% hits; AID 540277, 2011; active means potentiation above 80%; inconclusive means 30% to 80%; inactive means below 30%; further: 0% is about no effect
Target sequence (Q8NER1 whole entry, looked up): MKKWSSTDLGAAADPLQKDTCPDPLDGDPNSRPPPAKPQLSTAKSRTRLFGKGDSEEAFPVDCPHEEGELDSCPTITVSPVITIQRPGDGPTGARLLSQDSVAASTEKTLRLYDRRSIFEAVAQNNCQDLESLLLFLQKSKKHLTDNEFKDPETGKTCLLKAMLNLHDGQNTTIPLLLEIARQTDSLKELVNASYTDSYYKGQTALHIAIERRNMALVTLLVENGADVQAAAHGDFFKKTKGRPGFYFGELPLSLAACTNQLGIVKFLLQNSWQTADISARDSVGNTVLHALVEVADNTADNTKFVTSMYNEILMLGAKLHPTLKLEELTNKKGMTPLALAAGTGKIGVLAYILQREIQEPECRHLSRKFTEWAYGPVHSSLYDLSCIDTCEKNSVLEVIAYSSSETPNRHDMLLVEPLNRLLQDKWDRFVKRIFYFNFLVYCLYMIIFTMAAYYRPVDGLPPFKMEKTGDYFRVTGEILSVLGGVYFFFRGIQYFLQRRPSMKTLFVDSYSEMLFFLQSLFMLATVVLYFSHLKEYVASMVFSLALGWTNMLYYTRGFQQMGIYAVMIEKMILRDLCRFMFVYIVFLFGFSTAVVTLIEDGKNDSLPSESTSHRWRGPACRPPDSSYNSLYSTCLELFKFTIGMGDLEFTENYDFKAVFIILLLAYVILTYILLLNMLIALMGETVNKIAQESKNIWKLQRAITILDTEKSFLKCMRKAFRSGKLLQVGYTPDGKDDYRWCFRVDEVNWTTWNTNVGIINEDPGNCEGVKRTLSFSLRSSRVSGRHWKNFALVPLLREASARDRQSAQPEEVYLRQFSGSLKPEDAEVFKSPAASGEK
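Cells expressing TRPV1 were dye-loaded with Fluo-8 and read kinetically: 10 s baseline, 3 min after compound (agonist portion), then 2 min after EC20 capsaicin (allosteric enhancer portion). Calcium-bound dye fluorescence at 480/520 nm.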
CtBP-E1A inh = qHTS Assay for Inhibitors of the CtBP/E1A Interaction; 340,000 compounds, 0.49% hits; AlphaScreen GST-E1A/His-CtBP binding, 1536-well; stronger effect = lower value; control for the full effect not named in the record; CtBP / adenovirus E1A interaction (AlphaScreen); activity change, % (no concentration beside the values); in the data active means activity change below about -65%; inconclusive means about -30% to -65%; inactive means above about -30%; further: on the % scale 0 is the no-effect control and ±100 the full control effect
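In 5 uL wells, 23 nL compound meets equimolar GST-E1A and His-CtBP (5X stock 125 nM each) for 2 h, 37 °C. Beads (5X, 50 ug/mL) then 1 h, 37 °C, dark.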
D2 potentiator = Beta-Arrestin HTS for Positive Allosteric Modulators of the Human D2 Dopamine Receptor: Potentiators; potentiation, % (no concentration beside the values); D(2) dopamine receptor (Homo sapiens), P14416; 360,000 compounds, 0.23% hits; DiscoveRx D2 beta-arrestin cells, luminescence, 90 min; 100% = 57 uM dopamine signal; active = potentiation of 50% or more; inconclusive = 30% to 50%; inactive = 30% or less;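 further: compound concentration not given in the record; tested on top of an EC20 dose of dopamine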
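PathHunter beta-arrestin assay in DiscoveRx D2 cells. Compounds were added with an EC20 of dopamine (50 nM final) for 90 min at 37 deg C. Luminescence was read 1 h after detection reagent, with 57 uM dopamine as the EC100 control.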
TRPML1 blocker = qHTS for Inhibitors of the Human Mucolipin Transient Receptor Potential 1 (TRPML1) | TRPML1-inducible cells, Ca2+ dye fluorescence, FDSS; stronger effect = lower value; inhibition of EC80 agonist-evoked calcium signal | AID 624415, 2012 | 390,000 compounds, 0.02% hits | Mucolipin-1 (Homo sapiens), Q9GZU1 | activity change, negative = inhibition, % (no concentration beside the values); in the data active means activity change below about -50%; inconclusive means about -30% to -50%; inactive means above about -30%;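 further: stimulus is agonist 54-4 at its EC80 concentration; on the % scale 0 is the no-effect control and ±100 the full control effect; compound concentration not given in the record; the text of the record puts the active cut at -80%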
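Tet-induced TRPML1-DL cells loaded with Ca8 no-wash calcium dye were read kinetically on FDSS. Compound addition was followed by EC80 agonist 54-4 (4 uM final); inhibition was read over 110 s.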
Six1-Eya2 inh = qHTS Assay for Inhibitors of the Six1/Eya2 Interaction | AlphaScreen GST-Six1/His-Eya2 binding, biochemical; stronger effect = lower value; control for the full effect not named in the record | Homeobox protein SIX1 (Homo sapiens) + Protein phosphatase EYA2 (Homo sapiens), … | AID 651725, 2012 | 360,000 compounds, 0.56% hits | activity change, % (concentration not given with the values); in the data active = activity change below about -65%; inconclusive = about -30% to -65%; inactive = above about -30%; further: on the % scale 0 is the no-effect control and ±100 the full control effect
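GST-Six1 + His-Eya2 (5X stock: 250/500 nM); Tris pH 8.0, 300 mM NaCl, 0.05% BSA, 0.02% Tween 20; GSH donor/Ni acceptor beads; 1 h 37 °C dark; AlphaScreen readout.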
TRPML1 ag = qHTS for Agonists of the Human Mucolipin Transient Receptor Potential 1 (TRPML1). Mucolipin-1 (Homo sapiens), Q9GZU1. TRPML1-expressing cells, Ca2+ dye fluorescence, FDSS; host cell line not named in the record; reference of the full effect not given here. activation, % (no concentration beside the values). 410,000 compounds, 0.12% hits; in the data active = activation above about 50%; inconclusive = about 30% to 50%; inactive = below about 30%; further: 0% is about no effect; the text of the record puts the active cut at 80%
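Tetracycline-induced TRPML1-DL cells are seeded and incubated overnight before loading with a no-wash Ca2+ dye and quencher. Agonist activity is taken from the 110 s fluorescence read following compound pin-transfer on an FDSS, before EC80 54-4 challenge.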
An asterisk follows results filed as active; ? = inconclusive; · = no result given; & = joins results of further samples.

| structure | TRPML1 ag | TRPV1 PAM | Six1-Eya2 inh | TRPML1 blocker | CtBP-E1A inh | D2 potentiator |
| --- | --- | --- | --- | --- | --- | --- |
| COc1ccc(NS(=O)(=O)c2cc3c(cc2C)N(C(C)=O)CCO3)cc1OC | -0.3 | -14 | 2 | 1 | 6 | -3 |
| Brc1ccc(OCc2ccccc2)c(CNCc2ccncc2)c1 | 1.4 | -3 | 0 | 23 | 3 | -22 |
| Clc1ccc(COc2ccccn2)c(Cl)c1 | 2.7 | 6 | -2 | 5 | 2 | -21 |
| CCCCn1nnnc1SCC(=O)NC1CCCCC1 | -0.6 | 15 | 6 | 1 | 7 | -7 |
| O=C(COC(=O)/C=C/c1ccc(Cl)cc1Cl)Nc1ccc2c(c1)OCCO2 | 0.9 | -20 | 7 | -14 | -9 | -5 |
| N#Cc1ccc(C(=O)CSc2n[nH]c(=O)n2-c2cccnc2)cc1 | 1.5 | 27 | -2 | 21 | 6 | 0 |
| O=c1[nH]c2ccccc2nc1-c1cccs1 | 0.3 | 0 | 8 | -9 | -4 | -4 |
| COc1ccc(C(=O)N/N=C/c2ccc(OC)c(COc3c(F)c(F)cc(F)c3F)c2)cc1 | 1.6 | 7 | 2 | 9 | 4 | -9 |
| CC(=O)N1CCN(c2ccc(C(N)=O)cc2[N+](=O)[O-])CC1 | -0.1 | 1 | -5 | -1 | 4 | -4 |
| COc1cc(C)ccc1OCCOCCOc1ccc(C)cc1[N+](=O)[O-] | 1.1 | 19 | -1 | 12 | 6 | -17 |
| Cc1cccc(/N=C2/NC(=O)C(Cc3ccccc3)S2)n1 (centres undefined) | · | 7 | 0 | · | -1 | -6 |
| CCCCOc1cccc(C(=O)Nc2ccc(S(=O)(=O)Nc3nnc(CC)s3)cc2)c1 | · | 13 | 2 | · | · | 8 |
| CCn1c(SCC(=O)NCc2ccccc2)nnc1-c1cccnc1 | -0.1 | 1 | 1 | -6 | -7 | -4 |
| COCCCn1c(=O)/c(=C\c2ccccc2OC(F)F)s/c1=C(/C#N)C(=O)NC(C)C | 0.0 | -8 | 0 | -5 | 8 | -14 |
| O=C(CCC(=O)N(CC(=O)NC1CCCC1)Cc1ccccc1)Nc1nccs1 | 0.3 | -1 | -9 | -10 | 8 | -6 |

Random excerpt: 4 records from the list
| structure | TRPML1 ag | TRPV1 PAM | Six1-Eya2 inh | TRPML1 blocker | CtBP-E1A inh | D2 potentiator |
| --- | --- | --- | --- | --- | --- | --- |
| COc1ccc(NS(=O)(=O)c2cc3c(cc2C)N(C(C)=O)CCO3)cc1OC | -0.3 | -14 | 2 | 1 | 6 | -3 |
| CCCCOc1cccc(C(=O)Nc2ccc(S(=O)(=O)Nc3nnc(CC)s3)cc2)c1 | · | 13 | 2 | · | · | 8 |
| CC(=O)N1CCN(c2ccc(C(N)=O)cc2[N+](=O)[O-])CC1 | -0.1 | 1 | -5 | -1 | 4 | -4 |
| COc1cc(C)ccc1OCCOCCOc1ccc(C)cc1[N+](=O)[O-] | 1.1 | 19 | -1 | 12 | 6 | -17 |

Further compounds
| structure | TRPML1 ag | TRPV1 PAM | Six1-Eya2 inh | TRPML1 blocker | CtBP-E1A inh | D2 potentiator |
| --- | --- | --- | --- | --- | --- | --- |
| O=C(CCl)Nc1cccc2ncccc12 | 0.5 | 6 | 2 | -7 | 3 | 2 |
| Fc1cccc(CN2CCN(c3nc4nonc4nc3NC3CC3)CC2)c1 | 1.0 | -4 | 2 | 6 | · | -6 |
| CCC(=O)c1ccc(OCC(=O)OCC(=O)c2c(N)n(C)c(=O)n(C)c2=O)cc1 | 0.0 | -20 | -3 | -15 | -4 | -7 |
| CC(=O)N1c2ccc(S(=O)(=O)NCCc3ccc(Cl)cc3)cc2CC1C (centres undefined) | 2.1 | -10 | 3 | -12 | · | -14 |
| C[C@H](c1ccccc1)N1C[C@@H](COCc2ccccc2)Oc2cc(N3CC[C@H](O)C3)ccc2S1(=O)=O | -0.2 | · | -16 | · | -10 | · |
| Cc1nn(-c2ccc(N3CCCCC3)nn2)c(C)c1CCC(=O)Nc1cc(F)ccc1F | 2.3 | -8 | -2 | 43 | -3 | -1 |
| CON(C)c1nc(OCCNC(=O)OCc2ccc(Cl)cc2Cl)nc(N(C)C)n1 | 1.1 | 2 | 2 | -17 | 0 | -3 |
| Cc1ccc(C(=O)NC(=S)N(C)Cc2ccccc2)cc1 | -0.2 | · | -3 | -4 | · | -23 |
| Cc1ccc(S(=O)(=O)CCC(=O)OC(C)C(=O)Nc2ccc(N3CCOCC3)cc2)cc1 (centres undefined) | -0.9 | -1 | -2 | 4 | · | 5 |
| CC(=O)Nc1nnc(Cc2ccccc2)s1 | -0.3 | -6 | -4 | 12 | 10 | -1 |
| COc1ccc(-n2nc(C(N)=O)c(O)cc2=O)cc1 | -0.2 | ? | 5 | -8 | 4 | -3 |
| CS(=O)(=O)N1N=C(c2ccccc2)CC1c1ccc2c(c1)OCO2 (centres undefined) | -0.3 | -16 | -19 | -6 | -7 | -7 |
| NCCc1nnc(SCC(N)=O)o1 | -0.6 | -5 | 4 | -9 | 1 | -5 |
| CN(C)c1ccc(/C=N/N(CCC(=O)NC(C)(C)C)C2=NS(=O)(=O)c3ccccc32)cc1 | 0.5 | -14 | 19 | 14 | 1 | -5 |
| O=S(=O)(c1cccc2cccnc12)N1CCc2ccccc21 | -0.3 | 1 | -4 | 0 | 6 | -8 |
| C=CCc1cccc2cc(C(=O)N3CCN(C(=O)c4ccco4)CC3)c(=O)oc12 | -0.3 | -17 | -11 | -6 | -6 | 4 |
| NS(=O)(=O)c1ccc(C(=O)Nc2ccc(-c3nc4cccnc4s3)cc2)cc1 | 0.1 | 5 | -3 | 9 | -7 | -6 |
| CCc1nccn1S(=O)(=O)c1cc(Br)ccc1OC | -0.1 | 2 | 10 | 7 | 7 | -15 |
| COc1ccc(/C=N/NC(=O)c2c(C)nnn2-c2nonc2N)cc1OC | -0.5 | 7 | 1 | 2 | -19 | -3 |
| COCCN(CC(=O)Nc1cccc(C)c1C)C(=O)c1cc(S(=O)(=O)N2CCCC2)ccc1C | -1.4 | -3 | -12 | -5 | · | -13 |
| Cc1ccc(C(=O)Nc2cc(Cl)ccc2N2CCCCC2)s1 | -0.4 | 13 | 14 | 4 | 2 | -2 |
| C#Cc1ccc(C(=O)Nc2ccc(N3CCC(C)CC3)c(C(N)=O)c2)cc1 | 0.2 | 27 | 1 | 37 | · | -7 |
| Cc1ccc(-c2nc(CS(=O)CC(=O)NCc3ccccc3)c(C)o2)cc1 (centres undefined) | -0.2 | 10 | 8 | 40 | -13 | -3 |
| OC(CNCCc1ccc(Cl)cc1)COc1ccc2ccccc2c1 (centres undefined) | 0.4 | -6 | 1 | 11 | 3 | -14 |
| NS(=O)(=O)c1ccc(NC(=O)CN2CCN(S(=O)(=O)c3ccc(F)cc3)CC2)cc1 | -0.2 | 17 | 2 | 3 | 1 | 2 |
| O=C(NC1CCCC1)c1ccccc1-c1ccccc1 | 0.4 | -4 | 5 | 24 | 2 | -7 |
| COc1ccc(Cl)cc1S(=O)(=O)N(C)CC(=O)NCc1ccccn1 | 0.2 | 2 | -7 | 0 | -2 | -10 |
| C/C(N)=C(/C#N)C(=O)COC(=O)C1Cc2ccccc2CN1S(C)(=O)=O (centres undefined) | 0.4&1.1 | -16 | -10&-5 | -7&-5 | -5&1 | -5&-9 |
| NS(=O)(=O)c1ccc(N2N=C(c3ccccc3)CC2c2cccc(Br)c2)cc1 (centres undefined) | 0.5 | · | 29 | 32 | -5 | -1 |
| Cc1cc(C)cc(NC(=O)N2CCCC2C(=O)Nc2ccc(-n3cnnn3)c(C)c2)c1 (centres undefined) | -0.8 | 0 | -2 | 13 | 1 | -43 |
| COCCN(C(=O)COC(=O)C1COc2ccccc2O1)c1c(N)n(Cc2ccccc2)c(=O)[nH]c1=O (centres undefined) | -0.7 | 7 | 4 | 13 | 1 | -8 |
| CC(C)c1ccc2occ(-c3nn[nH]n3)c(=O)c2c1 | -0.2 | 3 | -4 | -10 | -6 | -2 |
| Cc1ccc(C(=O)NCc2nnc(SCC(=O)Nc3sc4c(c3C#N)CCCC4)n2C)cc1 | -0.1 | -20 | 0 | 0 | -5 | -6 |
| Cc1ccc2cc(NC(=O)CC(CC(=O)O)c3ccccc3)ccc2n1 (centres undefined) | 0.6 | 5 | ? | -3 | · | -8 |
| CC(C)(C)c1ccc(C(=O)Nc2ccc(Cl)cc2)cc1 | 0.6 | 8 | 13 | -6 | 0 | -24 |
| COc1cccc(N2CCN(C(=O)c3c(C)nn(-c4ccccc4)c3C)CC2)c1 | 0.1 | 13 | -3 | 7 | -11 | 12 |
| C#CCSc1nnc(-c2ccc(OC)cc2)o1 | -0.3 | 4 | 8 | -12 | 13 | 14 |
| CC(C)C(=O)NNc1nc2ccccc2s1 | 0.5 | -10 | -2 | -10 | 6 | 1 |
| OCCCCC#Cc1c(-c2ccsc2)sc2ccccc12 | -1.2 | -7 | 0 | -4 | 3 | -24 |
| CCCn1c(C(C)Nc2nc(-c3ccc(C)cc3)cs2)nc2ccccc21 (centres undefined) | -0.1 | 2 | 0 | -16 | -12 | -16 |
| Cc1cccc(N2CCN(Cc3cnc(Cl)s3)CC2C)c1 (centres undefined) | 2.0 | 2 | -9 | 5 | 0 | -14 |
| CCOCCc1nnc(NC(=O)Cc2c(F)cccc2Cl)s1 | 1.6 | 5 | 1 | 49 | -5 | 6 |
| O=C(CNC(=O)c1cccc(N2C(=O)c3ccccc3C2=O)c1)Nc1ccc(F)c(F)c1 | -0.4 | -5 | 5 | -18 | 2 | -3 |
| Cc1c(NC(=O)c2noc3c2CCc2ccccc2-3)c(=O)n(-c2ccccc2)n1C | -1.1 | · | 10 | -8 | -2 | -6 |
| O=C(Nc1ncn[nH]1)c1ccc(Cl)c(S(=O)(=O)Nc2ccc(Cl)cc2)c1 | 1.0 | -3 | -28 | 13 | -27 | -10 |
| COc1ccc(C(=O)C2CCCN(C(=O)COc3ccc(C(C)=O)cc3)C2)cc1F (centres undefined) | 0.2 | 8 | -9 | -3 | 6 | 12 |
| CCOc1ccc(N(CC(=O)NCC2CCCO2)S(=O)(=O)c2ccc(Cl)cc2)cc1 (centres undefined) | -0.4 | -13 | 4 | 4 | -2 | -12 |
| Cc1ccc(S(=O)(=O)N(C(=O)c2ccncc2)c2ccc(OC(=O)c3ccncc3)cc2)cc1 | -0.5 | -5 | 9 | -1 | -7 | 6 |
| Cc1c(NC(=S)N2CCN(c3cccc(Cl)c3)CC2)c(=O)n(-c2ccccc2)n1C | -0.3 | -7 | -4 | 28 | -2 | -16 |
| Cc1ccc(Cl)cc1NC(=O)c1cc(NC(=O)C2CCCCC2C(=O)O)ccc1N1CCOCC1 (centres undefined) | 1.6 | 4 | -10 | 27 | 11 | 9 |
| Cc1ccc(SCc2nc(-c3cccnc3)no2)cc1 | 2.3 | -6 | 25 | 14 | 7 | -5 |
